VACV Venus inh: vaccinia inhibition (Venus reporter); Vaccinia virus Venus reporter expression, fluorescence; Potency, µM (highest dose often 36.5 µM), inactives show at the highest dose activity change, negative = inhibition, usual class: inhibitors; 330,000 compounds, 0.46% hits; active means well fitted inhibition curve with a large enough effect; inconclusive means small, poorly fitted or top-dose-only effect; inactive means no such curve, though single readings can be large or run the other way; tested in A549 cells; also: nearly all actives have a fitted effect of over 30% in size; inactives centre near -10
VACV mCherry inh: inhibitors of vaccinia virus infection (mCherry reporter signal); 310,000 compounds, 0.63% hits; Vaccinia virus mCherry reporter infection, fluorescence; about a quarter of the inactives have no number; AID 720579; Potency, µM (highest dose often 36.5 µM), inactives show at the top dose activity change, negative = inhibition, usual class: inhibitors; active = well fitted inhibition curve with a large enough effect; inconclusive = small, poorly fitted or top-dose-only effect; inactive = no such curve, though single readings can be large or run the other way; tested in A549 cells; also: nearly all actives have a fitted effect of over 35% in size; inactives centre near -10
* marks the source's active call; other numbers are inactive results; i = inactive; u = inconclusive; x = not tested or not shown; [ ] = another dose, or the depositor's remark. % is scaled to controls: 0 for no effect and ±100 for the full control effect; potency is read from the fitted curve at half-maximal effect.

Results follow in this order: VACV Venus inh	VACV mCherry inh
CC(=O)Nc1cccc(NS(=O)(=O)c2cc3c4c(c2)CCN4C(=O)CC3)c1
 : -9.1%	-20.6%
COC(=O)[C@]12CCCCC=C1N(CCc1ccc(OC)c(OC)c1)C(=O)[C@H](CC(=O)NCc1cccs1)C2
 : -11.4%	-12.7%
O=S(=O)(Nc1ccc(-c2ccc(N3CCCC3)nn2)cc1)c1ccc(C(F)(F)F)cc1
 : -4.3%	-10.7%
O=C(NNC(=S)NC(=O)C12CC3CC(CC(C3)C1)C2)c1ccncc1
 : -24.7%	u
Nc1nnc(CSCc2cccc(Br)c2)s1
 : -18.5%	-14.2%
COC(=O)c1cc(OC)c(OC)cc1NC(=O)C(C)Sc1ccc(C)cc1 (configuration not stated)
 : -9.4%	i
CCCc1cc(=O)oc2cc(OCC(=O)N3C[C@H]4C[C@@H](C3)c3cccc(=O)n3C4)c(Cl)cc12
 : -7.2%	-6.0%
Cc1cc(C)c(COc2ccc(/C=N/n3c(C)n[nH]c3=S)cc2)c(C)c1
 : -14.9%	-11.7%
O=C(C1CCCC1)N1CCN(S(=O)(=O)c2ccc(F)cc2)CC1
 : 0.9%	6.4%
CCCCn1c(N)c(N(CC)C(=O)c2ccc(C)cc2)c(=O)[nH]c1=O
 : -2.6%	0.6%
O=C(Nc1ccc2ccccc2c1)c1cccnc1
 : -20.9%	-29.7%
O=C1NC(=Nc2cccnc2)S/C1=C/c1ccc(F)cc1
 : -8.9%[7.34 µM]	-2.6%[7.34 µM]
CCc1ccc(NC(=O)CCCOc2cc(=O)n(C)c3ccccc23)cc1
 : -24.6%	u
S=C(NCCCN1CCOCC1)Nc1cccc(Cl)c1
 : -22.0%	-5.7%
CCOc1ccccc1NC(=O)CSc1nc2cc(OC)c(OC)cc2c2nc(CCn3c(C)nc4ccccc43)nn12
 : u	u
O=C(CSCc1ccccn1)Nc1ccccc1
 : -15.1%	-11.9%
Cc1nc(C)c(C(=O)OCC(=O)N(C)c2ccccc2)s1
 : -10.5%	-7.5%
CC(C)CN(C(=O)CN1C(=O)C2CCCCC2C1=O)c1c(N)n(Cc2ccccc2)c(=O)[nH]c1=O (configuration not stated)
 : -13.1%	-11.6%
O=S1(=O)c2ccc(Br)cc2N2CCC[C@@H]2CN1Cc1ccccc1
 : -11.9%	i
CCOc1ccccc1NC(=O)Cn1c(=O)n(Cc2ccc(C(=O)NCCCOC)cc2)c(=O)c2ccccc21
 : -13.9%	-17.6%
Cc1[nH]n(-c2cccc3ccccc23)c(=O)c1/C=N/c1sc2c(c1C#N)CCC2
 : -18.6%	x
Cc1ccc(N2C(S)=C(C#N)C(=O)NC23CCCCC3)cc1
 : -6.1%	-9.8%
O=C(NCc1cccs1)C1CCCN(S(=O)(=O)c2ccc3c(c2)OCO3)C1 (configuration not stated)
 : -4.0%	-10.1%
COc1ccc(C(=O)COc2ccccc2N2C(=O)C3C4C=CC(C4)C3C2=O)cc1 (configuration not stated)
 : -1.1%	x
COc1cccc(CNS(=O)(=O)c2cc3c(cc2Cl)NC(=O)CO3)c1
 : -4.0%	i
Cc1ccc(N2C(=O)N(CC(=O)Nc3ccc(C)c(C)c3[N+](=O)[O-])C(=O)C2C)cc1 (configuration not stated)
 : -18.5%	-24.1%
COc1ccc(C2CC2/C(=N/OC(=O)c2cccs2)c2ccccc2)cc1 (configuration not stated)
 : -10.5%	x
Cc1csc(NC(=O)CSc2nnc(C)s2)n1
 : -11.2%	x
O=C1CN=C(c2ccccc2)c2cc([N+](=O)[O-])ccc2N1
 : -18.6%	-1.5%
COc1cc(/C(C)=N/N2CCOCC2)cc(OC)c1OC
 : 2.5%	i
CCSc1nnc(NC(=O)c2ccc(F)c(S(=O)(=O)N3CCOCC3)c2)s1
 : -14.1%	-0.7%
Cc1n[nH]c(C)c1CS(=O)(=O)c1ccccc1
 : -8.1%	-13.7%
COc1cccc(C(=O)NC(=S)Nc2ccc(N(C)C)cc2)c1
 : -23.0%	-29.8%
Cc1cc(N/C=C/C(=O)c2ccc(Br)cc2)no1
 : -3.6%	-16.7%
COC(=O)CSc1nnc(CNc2ccc(F)cc2)o1
 : -2.6%	-4.1%
O=C(c1cccc(N2CCCC2=O)c1)N1CCC2(CC1)OCCO2
 : -13.8%	i
O=C(Cc1ccc(Cl)cc1)Nc1ncccn1
 : 0.2%	i
CC(=O)Nc1cccc(OCc2ccc(F)cc2)c1
 : -5.0%	-9.3%
CC(C)c1ccc(NC(=O)N2CCN(S(=O)(=O)c3ccccc3)CC2)cc1
 : -18.4%	i
COc1ccc(/C=N/n2c(C)nc3ccccc3c2=O)cc1OC
 : -15.1%	-21.1%
CN(c1cccc2cccnc12)S(=O)(=O)c1ccccc1
 : 4.8%	u
Cc1cccc(N(C(=O)CCC(=O)Nc2cc(C)on2)C(C(=O)NC2CCCC2)c2ccncc2)c1 (configuration not stated)
 : -13.8%	i
NS(=O)(=O)c1ccc2ccccc2c1
 : -9.3%	-10.8%
COc1cc(N(C)C)ccc1/C=C1\C=Cc2ccccc21
 : -17.6%	20.6%
CCN(CCCNC(=O)c1cc2cc3ccc(OC)cc3nc2s1)c1ccccc1
 : u	-24.1%
O=C1CN(C(=O)C2CCCCC2)C(c2ccccc2)c2cc(F)ccc2N1 (configuration not stated)
 : -13.0%	-9.0%
CCN(CC)S(=O)(=O)c1cc([N+](=O)[O-])ccc1NNC(=O)Nc1ccc(Cl)c(Cl)c1
 : 15.8µM*	u
O=C(Nc1ccc(F)cc1)N1CCN(c2ccccc2F)CC1
 : -9.9%	-5.8%
CCCOC(=O)c1ccc(-c2ccc(C=O)o2)cc1
 : -16.1%	-16.5%
O=C(NCCN1CCCCCC1)C1CCCN1S(=O)(=O)c1cccc2nsnc12 (configuration not stated)
 : -2.5%	-1.4%

Next section:
Results follow in this order: VACV Venus inh	VACV mCherry inh
CCOC(=O)C1(C)CCN1C(=O)c1oc2ccccc2c1C (configuration not stated)
 : -3.8%	26.9%
COc1ccc(N(C(=O)c2cc(OC)c(OC)c(OC)c2)S(=O)(=O)c2ccc(C)cc2)cc1
 : -8.8%	-10.3%
CC(C)C[C@H]1CNC(=O)C(=O)N1C[C@@H]1CCCN1C[C@H](Cc1ccccc1)N1C[C@H](Cc2ccccc2)N(CC2CCCCC2)C(=O)C1=O
 : 2.9%	-3.3%
O=C(CCc1c[nH]c2ccccc12)N1CCN(S(=O)(=O)c2ccccc2)CC1
 : -9.8%	-21.7%
Cc1c(/C=N\NC(=O)c2cc3ccccc3o2)c2ccccc2n1C
 : -25.9%	-19.9%
CCOC(=O)N1CCC(NC(=O)c2ccc3c(c2)N(Cc2cc(C)ccc2C)C(=O)c2ccccc2S3=O)CC1 (configuration not stated)
 : -26.4%	-19.0%
C#CC(CC)(CC)NC(=O)Nc1ccc(OCC)cc1
 : -13.7%	i
COc1cc2nc(Cl)nc(NC(C)C)c2cc1OC
 : u	u
CN(Cc1c(C(=O)N2CCCCCCC2)nc2ccc(Cl)cn12)C1CCOC1 (configuration not stated)
 : -3.1%	i
CCn1c(=O)c2cc(C(=O)N3CCN(C)CC3)sc2c2ccccc21
 : -6.5%	40.8%[activator]
Cn1cnnc1SCC(=O)Nc1ccccc1
 : 4.1%	i
COc1cccc(NC(=O)c2c(F)cccc2F)c1
 : -13.7%	-0.1%
Cc1ccc(-n2ncc3c2CC(C)(C)CC3NC(=O)c2ccc[n+]([O-])c2)cc1 (configuration not stated)
 : -10.2%	-23.7%
COCCNc1nc(C)cc(-c2cc(C(=O)NC3CCCC3)on2)n1
 : -11.0%	10.4%
C=CCSc1nc2c(cnn2-c2ccc(C)c(C)c2)c(=O)[nH]1
 : -9.5%	-29.0%
CCc1nc2ccc(C(=O)NCCC(C)C)cn2c1N(C)Cc1nccs1
 : -18.1%	2.4%
COC(=O)c1ccc(S(=O)(=O)NCc2ccc(OC)cc2)n1C
 : -11.3%	-21.1%
Cc1ccc([C@@H]2CC=C(C(=O)O)[C@H](c3ccc(F)cc3)N2S(=O)(=O)c2ccc(C)cc2)cc1
 : -8.2%	-19.0%
COc1ccc(OC)c(NC(=O)C2C3CC4OC(=O)C2C4C3)c1 (configuration not stated)
 : -12.2%	x
Cc1cccc(C(=O)N[C@H](C(=O)NCc2cccs2)C(C)C)c1
 : -13.2%	-21.1%

Of the compounds above, these contain bromine:
Results follow in this order: VACV Venus inh	VACV mCherry inh
Nc1nnc(CSCc2cccc(Br)c2)s1
 : -18.5%	-14.2%
O=S1(=O)c2ccc(Br)cc2N2CCC[C@@H]2CN1Cc1ccccc1
 : -11.9%	i
Cc1cc(N/C=C/C(=O)c2ccc(Br)cc2)no1
 : -3.6%	-16.7%

New compounds follow:
Results follow in this order: VACV Venus inh	VACV mCherry inh
COc1ccc(C2=C(N3CCN(c4cccc(C)c4C)CC3)c3ccccc3C2=O)cc1
 : -6.2%	-13.7%
CC(CN1CCOCC1)OC(=O)c1cccs1 (configuration not stated)
 : -3.8%	x
CC(=O)Nc1c(C(=O)N2CCOCC2)sc2nc3c(cc12)COC(C)(C)C3
 : -3.5%	i
CC(Cc1ccccc1)NC(=O)CC(c1ccccc1)c1ccccc1O (configuration not stated)
 : -16.9%	-23.8%
CCNC(=O)c1ccc(N(C)S(=O)(=O)c2cccs2)cc1
 : -2.1%	-12.7%
NNC(=O)c1cc2cc(Oc3ccccc3)ccc2[nH]1
 : -14.2%	i
CC(C)(C)OC(=O)C[C@H]1C/C=C\C[C@@H](CC(=O)N[C@@H](CO)Cc2ccccc2)C(=O)N2CCC[C@H]2COC1=O
 : -20.0%	-27.6%
O=C(O)CCc1ccc(-c2ccccc2)o1
 : -1.2%	i
NC(=O)C1CCCN(C(=O)c2ccc(Cl)cc2)C1 (configuration not stated)
 : -1.7%	-30.0%
CN(C)c1nc(Cl)nc(N(C#N)CCOc2ccccc2)n1
 : -17.8%	-21.4%
CCOc1ccc(NC(=O)CC2C(=O)N(c3ccc(C)cc3)C(=O)N2C2CCCCC2)cc1 (configuration not stated)
 : -17.5%	-24.2%
CCc1nc(SCC(=O)O)c2c3c(sc2n1)COC(C)(C)C3
 : -18.4%	-1.1%
C=CCNCCCCOc1ccc(OCC)cc1
 : -9.2%	i
CCOC(=O)C(=NCCCN1CCOCC1)NNc1cccc(C(F)(F)F)c1
 : -15.3%	-16.9%
Oc1cccnc1Sc1cccc(C(F)(F)F)c1
 : -14.8%	-5.0%
Cc1cc(NC(=O)COC(=O)C(Cc2ccccc2)NC(=O)c2ccco2)no1 (configuration not stated)
 : -17.0%	i
COc1ccc(-c2ccc(CCC(=O)O)n2CC(=O)Nc2cccc(OC)c2)cc1
 : 1.8%	-7.9%
Cc1nnc(SCC(=O)c2ccc(Cl)cc2)s1
 : 2.7%	-17.6%
COc1ccc2c(c1)c1c3n2CCN(C)C3=NCC1
 : -4.5%	x
CC(=O)c1sc(NC(=O)c2c(F)cccc2F)nc1C
 : -34.1%	x
c1ccc(NCC2OCc3ccccc3CO2)cc1
 : -15.9%	-1.1%
N#Cc1cc([N+](=O)[O-])ccc1NCC1CCCO1 (configuration not stated)
 : -21.5%	-13.3%
CC(=O)Oc1ccc(-c2nc(-c3ccccc3)no2)cc1
 : -7.3%	27.2%
COc1ccc(Cc2nnc(NC(=O)C3CCN(C(=O)c4ccco4)CC3)s2)cc1
 : -18.6%	i
CCCCN(CC)CCCNC(=O)c1ccc(CSc2nc3ccncc3[nH]2)cc1
 : -5.5%	i
O=C(O)CCCN1C(=O)C2C3CC(C2C1=O)C1C(c2ccccc2)c2sc(=O)n(-c4ccccc4)c2SC31 (configuration not stated)
 : -5.7%	-28.0%
Cc1nn(C)c(C)c1NS(=O)(=O)c1ccccc1
 : -22.7%	x
C=CCc1ccc(OCC(O)CO)c(OC)c1 (configuration not stated)
 : -10.4%	i
COC(=O)c1ccc(N(CC(=O)NCC2CCCO2)C(=O)CCC(=O)Nc2cc(C)on2)cc1 (configuration not stated)
 : 4.5%	0.9%
CC1(c2ccc3ccccc3c2)NC(=O)N(CC(=O)N2CCN(S(=O)(=O)c3ccccc3F)CC2)C1=O (configuration not stated)
 : u	u
CC(=O)CSc1nc2cc3c(cc2cc1C#N)OCCO3
 : 2.2%	-17.3%
O=C(COc1ccc(Cl)cc1Cl)NC(=O)NC1CCCC1
 : -14.2%	-14.6%
CC(C)NC(=O)C1CCCN(c2nnc(-n3cccc3)s2)C1 (configuration not stated)
 : -10.3%	i
Cc1cccn2c(=O)c3cc(C(=O)NCc4cccnc4)c(=N)n(CCCO)c3nc12
 : 4.9%	-0.5%
O=C(NCCS(=O)(=O)NCc1cccnc1)c1ccccc1
 : -13.0%	i
COc1ccc2c3c(n(C(=O)OC(C)(C)C)c2c1)C1CC=C(COC(C)=O)CN1CC3 (configuration not stated)
 : -12.4%	-21.1%
CCN(CC(=O)NCc1ccc(Cl)cc1)C(=O)CN1C(=O)NC(CC)(c2ccccc2)C1=O (configuration not stated)
 : -10.1%	-28.4%
O=C(COc1ccccc1F)N1N=C(c2cccs2)CC1c1ccco1 (configuration not stated)
 : -15.8%	-18.1%
O=C(NCCN1CCN(C(=O)Nc2ccccc2)CC1)Nc1ccccc1
 : -5.5%	7.4%
Cc1ccc(S(=O)(=O)N2[C@@H](c3cccc(Cl)c3)C(C(=O)O)=CC[C@H]2c2cccs2)cc1
 : -5.2%	i

Screening data as filed in PubChem.
